Six1-Eya2 inh = Six1/Eya2 interaction inhibition | 0.56% of 360,000 active | AlphaScreen GST-Six1/His-Eya2 binding, biochemical; stronger effect = lower value; control for the full effect not named in the record | Q15475+O00167 | activity change, % (concentration not given with the values); in the data active = activity change below about -65%; inconclusive = about -30% to -65%; inactive = above about -30%; also: % is scaled to controls: 0 for no effect and ±100 for the full control effect
Target sequence (O00167 whole entry, looked up): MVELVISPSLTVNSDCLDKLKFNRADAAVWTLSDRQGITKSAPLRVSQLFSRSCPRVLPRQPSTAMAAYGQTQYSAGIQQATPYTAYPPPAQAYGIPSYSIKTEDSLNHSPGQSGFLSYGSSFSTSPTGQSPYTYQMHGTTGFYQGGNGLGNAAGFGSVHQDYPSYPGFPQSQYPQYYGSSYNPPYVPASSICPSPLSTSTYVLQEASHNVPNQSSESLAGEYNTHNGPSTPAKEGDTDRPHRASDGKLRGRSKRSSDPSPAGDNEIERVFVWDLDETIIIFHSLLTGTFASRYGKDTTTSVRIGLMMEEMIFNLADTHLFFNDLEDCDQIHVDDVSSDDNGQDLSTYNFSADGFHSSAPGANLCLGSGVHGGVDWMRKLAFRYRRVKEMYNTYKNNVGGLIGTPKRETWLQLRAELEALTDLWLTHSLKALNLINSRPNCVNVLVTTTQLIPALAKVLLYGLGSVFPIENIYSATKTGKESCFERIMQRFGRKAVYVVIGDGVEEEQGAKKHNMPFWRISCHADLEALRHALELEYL
Target sequence (Q15475 whole entry, looked up): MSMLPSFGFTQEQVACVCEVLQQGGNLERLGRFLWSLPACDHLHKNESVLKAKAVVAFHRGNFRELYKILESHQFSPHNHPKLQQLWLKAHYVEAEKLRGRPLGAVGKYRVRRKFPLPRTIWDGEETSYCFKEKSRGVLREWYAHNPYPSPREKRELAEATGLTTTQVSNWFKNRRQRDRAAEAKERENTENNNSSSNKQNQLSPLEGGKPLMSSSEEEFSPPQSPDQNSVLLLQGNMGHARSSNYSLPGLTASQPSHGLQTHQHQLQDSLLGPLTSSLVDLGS
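Compounds are tested against tagged Six1 and Eya2 proteins bridged by glutathione donor and nickel acceptor beads; after a one-hour incubation at 37 °C without light, AlphaScreen emission is recorded.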
TRPML1 agonist = agonists of human TRPML1 channel | Q9GZU1 | TRPML1-expressing cells, Ca2+ dye fluorescence, FDSS; host cell line not named in the record; reference of the full effect not given here | activation, % (test concentration not listed) | 0.12% of 410,000 active; in the data active = activation above about 50%; inconclusive = about 30% to 50%; inactive = below about 30%; also: 0% is about no effect; the text of the record puts the active cut at 80%
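Tet-induced TRPML1-DL cells, 1,500 per well, cultured overnight, were loaded with a no-wash Ca2+ dye for 45–90 min. Calcium fluorescence was recorded on the FDSS for 110 s after compound addition, before the EC80 agonist (4 uM 54-4) was added.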
D2 agonist = agonists of human D2 dopamine receptor (beta-arrestin) | activation, % (no concentration beside the values) | DiscoveRx PathHunter D2 beta-arrestin, luminescence, 90 min; 100% = 57 uM dopamine signal | 0.084% of 360,000 active; in the data active = activation above about 40%; inconclusive = about 15% to 40%; inactive = below about 15%; also: compound concentration not given in the record; the text of the record calls up to 30% inactive
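DiscoveRx PathHunter D2 beta-arrestin cells (2,100/well) attached overnight, then compound-stimulated 90 min at 37 C in HBSS/10 mM HEPES/0.1% Tween-20 buffer; beta-galactosidase complementation read by luminescence after 1 h at ambient temperature. Dopamine 57 uM final (EC100) as control.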
D2 PAM = potentiates the human D2 dopamine receptor allosterically | P14416 | potentiation, % (no concentration beside the values) | DiscoveRx D2 beta-arrestin cells, luminescence, 90 min; 100% = 57 uM dopamine signal | 0.23% of 360,000 active | AID 624464; active = potentiation of 50% or more; inconclusive = 30% to 50%; inactive = 30% or less;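 also: compound concentration not given in the record; tested on top of an EC20 dose of dopamine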
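D2 cells co-treated with compound plus 50 nM dopamine (EC20) for 90 min at 37 deg C to detect potentiation. Beta-arrestin recruitment was read as enzyme-fragment luminescence after 1 h at ambient temperature. Full response was set by 57 uM dopamine.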
PINK1 modulator = modulators of PINK1 expression; 0.2% of 410,000 active; PINK1 immunofluorescence, high-content cytometry, 24 h; AID 624263; Potency, µM (series often up to 76.6 µM), inactives show at the top dose activation (PINK1 increase), hits mostly activators; active = well fitted activation curve with a large enough effect; inconclusive = small, poorly fitted or top-dose-only effect; inactive = flat fitted curve, though single readings scatter; cell line not stated here;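 also: potency is read from the fitted curve at half-maximal effect; % of control where 0% means no effect; nearly all actives have a fitted effect of over 65% in size; a mitochondrial uncoupler was the plate control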
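Fluorescence from anti-PINK1 antibody, together with nuclear and cell stains, was scanned on a laser-scanning cytometer. Before staining, stable-line cells were incubated 24 hours with compounds at 5 concentrations; primary antibody 12 h at 10 degrees C.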
CtBP-E1A blk = blocks the CtBP interaction with E1A; 0.49% of 340,000 active; AlphaScreen GST-E1A/His-CtBP binding, 1536-well; stronger effect = lower value; control for the full effect not named in the record; AID 651724; activity change, % (no concentration beside the values); in the data active means activity change below about -65%; inconclusive means about -30% to -65%; inactive means above about -30%; also: % is scaled to controls: 0 for no effect and ±100 for the full control effect; compound concentration not given in the record
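Steps: dispense buffer (Tris pH 8.0, NaCl 300 mM, TCEP 1 mM, BSA, Tween 20); add 5X protein mix (GST-E1A, His-CtBP, 125 nM each); pin 23 nL compound; 2 h at 37 °C, dark; add 5X beads (50 ug/mL); 1 h; read.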
* = called active by the depositor; [ ] = remark or other dose.

For COc1ccc(NS(=O)(=O)c2ccc(NC(C)=O)cc2)cc1OC the results were Six1-Eya2 inh 1, TRPML1 agonist -0.7, D2 agonist 3.9, D2 PAM 25, PINK1 modulator -3.9% and CtBP-E1A blk 5.
Screening Nc1n[nH]c(=S)n1-c1ccc(Cl)cc1 returned Six1-Eya2 inh 1, TRPML1 agonist 0.7, D2 agonist 3.4, D2 PAM 21 and PINK1 modulator 2.2%.
For CC1(C)C[C@@H]2C[C@@](C)(CN2C(=O)c2ccccc2)C1 the results were Six1-Eya2 inh -5, TRPML1 agonist 0.4, D2 agonist -10, D2 PAM -4 and PINK1 modulator 0.4%.
`Cc1cccc(N(C)C(=O)CN(C)S(=O)(=O)c2ccc3c(c2)c(=O)n(C)c(=O)n3C)c1` gave Six1-Eya2 inh 1, TRPML1 agonist -0.9, D2 agonist -17, D2 PAM -6, PINK1 modulator 0.6% and CtBP-E1A blk -9.
Screening OC(COc1ccccc1)CN1CCN(C(c2ccccc2)c2ccccc2)CC1 (stereo not drawn) returned Six1-Eya2 inh -11, TRPML1 agonist 1.3, D2 agonist -4.8, D2 PAM -3, PINK1 modulator 22% and CtBP-E1A blk -14.
Screening CC(=O)NC1CC(C)(C)N(OC(C)=O)C(C)(C)C1 returned Six1-Eya2 inh 0, TRPML1 agonist 0.1, D2 agonist -4.9, D2 PAM -27, PINK1 modulator 1.3% and CtBP-E1A blk 3.
`CC1CCCC(NC(=O)CCCCCn2c(=S)[nH]c3ccsc3c2=O)C1C` (stereo not drawn) gave Six1-Eya2 inh 4, TRPML1 agonist -1.1, D2 agonist -1.4, D2 PAM -13, PINK1 modulator -1.2% and CtBP-E1A blk 3.
`CCC1(c2ccccc2)ON(c2c(Br)cccc2Br)C1=O` (stereo not drawn) gave Six1-Eya2 inh 5, TRPML1 agonist -1.1, D2 agonist 1.3, D2 PAM 1, PINK1 modulator 0.4% and CtBP-E1A blk 0.
`CCN(CC)C(=O)c1ccc(C)c(Br)c1` gave Six1-Eya2 inh 7, TRPML1 agonist -0.5, D2 agonist -0.2, D2 PAM 1, PINK1 modulator 1.2% and CtBP-E1A blk 4.
Screening CC(=O)c1c(-c2ccccc2)[nH]c2ccccc12 returned Six1-Eya2 inh 13, TRPML1 agonist 1.2, D2 agonist 5.8, D2 PAM 2, PINK1 modulator 3.3% and CtBP-E1A blk -4.

The closing 2 entries of the section above are carried over, then new ones follow:
`CCN(CC)C(=O)c1ccc(C)c(Br)c1` gave Six1-Eya2 inh 7, TRPML1 agonist -0.5, D2 agonist -0.2, D2 PAM 1, PINK1 modulator 1.2% and CtBP-E1A blk 4.
Screening CC(=O)c1c(-c2ccccc2)[nH]c2ccccc12 returned Six1-Eya2 inh 13, TRPML1 agonist 1.2, D2 agonist 5.8, D2 PAM 2, PINK1 modulator 3.3% and CtBP-E1A blk -4.
Screening Cn1c(SCC(=O)Nc2cc(Cl)cc(Cl)c2)nnc1-c1ccc2nonc2c1 returned Six1-Eya2 inh 2, TRPML1 agonist 0.1, D2 agonist -0.2, D2 PAM -13, PINK1 modulator -1.9% and CtBP-E1A blk -4.
`CCOC(=O)c1cc(CC)sc1NC(=O)c1ccc2c(c1)OCCO2` gave Six1-Eya2 inh 32, TRPML1 agonist 0.3, D2 agonist -5.0, D2 PAM -6, PINK1 modulator 11% and CtBP-E1A blk 31.
Cc1cc(C)c(NC(=S)NC(=O)c2ccccc2)cc1C was read as Six1-Eya2 inh 7, TRPML1 agonist 1.9, D2 agonist -8.3, D2 PAM -10, PINK1 modulator 1.8% and CtBP-E1A blk -9.
`COc1ccc(NC(=O)CN2C(=O)CC(C)S(=O)(=O)c3ccccc32)cc1` (stereo not drawn) gave Six1-Eya2 inh -5, TRPML1 agonist -0.2, D2 agonist 5.9, D2 PAM 5, PINK1 modulator -0.5% and CtBP-E1A blk 1.
For COc1ccc(OC)c(S(=O)(=O)N(C)CC(=O)N2CCN(c3ccccc3)CC2)c1 the results were Six1-Eya2 inh 2, TRPML1 agonist -0.9, D2 agonist 0.4, D2 PAM 3, PINK1 modulator 1.3% and CtBP-E1A blk 5.
For CCC(C)Nc1nc(-c2ccc3c(c2)NC(=O)CO3)cs1 (stereo not drawn) the results were Six1-Eya2 inh -7, TRPML1 agonist -0.7, D2 agonist -2.8, D2 PAM -2, PINK1 modulator 3.4% and CtBP-E1A blk 9.
For CC1CN(S(=O)(=O)c2cccc(C(=O)Nc3ccccc3N3CCCCC3)c2)CC(C)O1 (stereo not drawn) the results were Six1-Eya2 inh -7, TRPML1 agonist -0.2, D2 agonist 0.4, D2 PAM -12, PINK1 modulator 5.6% and CtBP-E1A blk 1.
`OCCc1c[nH]c2ccc(OCc3ccccc3)cc12` gave Six1-Eya2 inh 0, D2 agonist 0.3, D2 PAM 28 and PINK1 modulator 1.6%.
For CN1CCN(CCc2nc3cc(NC(=O)COc4ccc(Cl)cc4)ccc3n2C)CC1 the results were Six1-Eya2 inh 4, TRPML1 agonist -0.9, D2 agonist -5.3, D2 PAM -30, PINK1 modulator -0.4% and CtBP-E1A blk -5.
For Cc1nc2oc3ccc(Cl)cc3c(=O)c2cc1C(=O)O the results were Six1-Eya2 inh 2, TRPML1 agonist 0.5, D2 agonist 7.4, D2 PAM 0, PINK1 modulator -0.6% and CtBP-E1A blk 5.
Fc1cccc(F)c1-n1c(CN2CCCC2)csc1=S was read as Six1-Eya2 inh -1, TRPML1 agonist 0.0, D2 agonist -1.3, D2 PAM -3, PINK1 modulator inconclusive and CtBP-E1A blk -10.
Screening CCN1CCN(CC(=O)Nc2ccccc2)C(=O)C1=O returned Six1-Eya2 inh 2, TRPML1 agonist -0.1, D2 agonist 2.8, D2 PAM -11, PINK1 modulator 0.3% and CtBP-E1A blk 3.
`CC(C)C1NCCc2c1sc1ccccc21` (stereo not drawn) gave Six1-Eya2 inh 5, TRPML1 agonist 0.6, D2 agonist 2.9, D2 PAM -20, PINK1 modulator 0.6% and CtBP-E1A blk 8.
Screening Cc1ccc(CNc2cc(C(=O)O)ccc2Cl)s1 returned Six1-Eya2 inh 0, TRPML1 agonist -0.2, D2 agonist -2.7, D2 PAM 4, PINK1 modulator -0.1% and CtBP-E1A blk 5.
`O=C(c1cc(Cl)nc2ccccc12)N1CCN(S(=O)(=O)c2cccc(C(F)(F)F)c2)CC1` gave Six1-Eya2 inh 9, TRPML1 agonist 1.3, D2 agonist 0.2, D2 PAM 3, PINK1 modulator -1.2% and CtBP-E1A blk -13.
COc1cccc(CNc2ccc3c(c2)CCC3)c1 was read as Six1-Eya2 inh -5, TRPML1 agonist 0.2, D2 agonist -1.5, D2 PAM -13, PINK1 modulator -0.2%[38.3 µM] and CtBP-E1A blk -9.
c1ccc2[nH]c(N3CCOCC3)nc2c1 was read as Six1-Eya2 inh 7, TRPML1 agonist -0.6, D2 agonist -1.3, D2 PAM 3, PINK1 modulator 0.1% and CtBP-E1A blk -4.
Screening COc1cccc(CNC(=O)Cc2csc(NC(=O)Nc3ccccc3OC)n2)c1 returned Six1-Eya2 inh -8, TRPML1 agonist 3.0, D2 agonist 0.3, D2 PAM 10, PINK1 modulator -2.7% and CtBP-E1A blk 0.
Screening O=C1NC(=O)/C(=C\c2cn(CC(=O)N3CCOCC3)c3ccccc23)S1 returned Six1-Eya2 inh 7, TRPML1 agonist -0.2, D2 agonist 1.9, D2 PAM -1, PINK1 modulator 3.0% and CtBP-E1A blk 3.
CC1CCC(NC(=O)c2nn(C)c3c2CS(=O)(=O)c2ccccc2-3)CC1 (stereo not drawn) was read as Six1-Eya2 inh -15, TRPML1 agonist -0.3, D2 agonist -5.0, D2 PAM -15 and PINK1 modulator -1.3%.

Random excerpt: two compounds from above
`O=C(c1cc(Cl)nc2ccccc12)N1CCN(S(=O)(=O)c2cccc(C(F)(F)F)c2)CC1` gave Six1-Eya2 inh 9, TRPML1 agonist 1.3, D2 agonist 0.2, D2 PAM 3, PINK1 modulator -1.2% and CtBP-E1A blk -13.
Screening O=C1NC(=O)/C(=C\c2cn(CC(=O)N3CCOCC3)c3ccccc23)S1 returned Six1-Eya2 inh 7, TRPML1 agonist -0.2, D2 agonist 1.9, D2 PAM -1, PINK1 modulator 3.0% and CtBP-E1A blk 3.

Following part.
Screening CCCCN(CC)C(=O)Cc1cn(C)c2ccccc12 returned Six1-Eya2 inh -3, TRPML1 agonist 0.5, D2 agonist -0.6, D2 PAM 3, PINK1 modulator -0.3% and CtBP-E1A blk -2.
For CC(=O)OC1COC(n2ccc3ccccc32)C(OC(C)=O)C1OC(C)=O (stereo not drawn) the results were Six1-Eya2 inh 0, TRPML1 agonist -0.5, D2 agonist -1.8, D2 PAM 15, PINK1 modulator -2.4% and CtBP-E1A blk 8.
For CCOC(=O)C1CCN(c2c(NCc3ccc(C(=O)N(C)Cc4ccccc4)cc3)c(=O)c2=O)CC1 the results were Six1-Eya2 inh -10, TRPML1 agonist -0.4, D2 agonist 6.1, D2 PAM -4, PINK1 modulator -0.4% and CtBP-E1A blk 2.
O=C(c1ccc(S(=O)(=O)N2CCCC2)cc1)N1CCN(c2cccc(Cl)c2)CC1 was read as Six1-Eya2 inh -12, TRPML1 agonist 2.2, D2 agonist -2.8, D2 PAM 8, PINK1 modulator 7.8% and CtBP-E1A blk 6.
Screening Cc1nc(N2CCC(C)CC2)c(C#N)c(C)c1[N+](=O)[O-] returned Six1-Eya2 inh -18, TRPML1 agonist 0.0, D2 agonist -1.9, D2 PAM -5, PINK1 modulator 7.8% and CtBP-E1A blk -22.
`COc1ccccc1OCCSc1nnnn1C1CCCCC1` gave Six1-Eya2 inh 3, TRPML1 agonist -0.7, D2 agonist 0.9, D2 PAM -9, PINK1 modulator -3.5% and CtBP-E1A blk 10.
For CCCn1c(-c2ccc(F)cc2)cnc1SCC(=O)O the results were Six1-Eya2 inh 21, TRPML1 agonist 3.0, D2 agonist -5.9, D2 PAM -26, PINK1 modulator 0.7% and CtBP-E1A blk 0.
Screening c1ccc(-c2ccnc3nc(-n4cccc4)nn23)cc1 returned Six1-Eya2 inh -1, TRPML1 agonist 2.0, D2 agonist -2.2, D2 PAM 0, PINK1 modulator 4.9%[38.3 µM] and CtBP-E1A blk -3.
For CCCCCOc1ccc(C(=O)CCC(=O)NC(C)c2ccc(S(N)(=O)=O)cc2)cc1 (stereo not drawn) the results were Six1-Eya2 inh -3, TRPML1 agonist -0.9, D2 agonist 7.9, D2 PAM -1, PINK1 modulator 1.1% and CtBP-E1A blk -2.
For Cc1n[nH]c(=O)nc1NCc1ccccc1 the results were Six1-Eya2 inh 4, TRPML1 agonist -0.6, D2 agonist -1.6, D2 PAM -6, PINK1 modulator -0.5% and CtBP-E1A blk 3.
O=c1[nH]n2c(=O)c3c([nH]c2c1N=Nc1ccccc1)CCC3 was read as Six1-Eya2 inh inconclusive, TRPML1 agonist 1.9, D2 agonist -9.7, D2 PAM -27, PINK1 modulator 1.0% and CtBP-E1A blk -15.
COc1ccc(NCc2nnc(SCC(=O)N3CCCc4ccccc43)n2C)cc1 was read as Six1-Eya2 inh -5, TRPML1 agonist 5.6, D2 agonist 0.0, D2 PAM -11, PINK1 modulator inconclusive and CtBP-E1A blk -15.
`O=C(Nc1ccccc1N1CCOCC1)c1cccc(F)c1` gave Six1-Eya2 inh 10, TRPML1 agonist -0.9, D2 agonist 0.2, D2 PAM 1, PINK1 modulator 1.6% and CtBP-E1A blk -1.

Assay outcomes (PubChem)
